Compound activity deposited in PubChem by Broad Institute.
Tg IFNy HTS – blocks Toxoplasma gondii growth in the presence of IFN-gamma; activity change, negative = inhibition, %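 (about 20 µM by stock and volumes)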; Toxoplasma gondii growth in IFN-gamma-treated host cells; active compounds read low; reference of the scale not given here; 3.8% of 69,000 active;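 active = below -70%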;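 note: host cells are HeLa cells infected with Toxoplasma gondii; parasite growth read as luciferase light; one replicate is shown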
* hit, by the source's call; & = joins results of further samples; ! = a repeat was not active. An excerpt. The share of hits here may be higher or lower than overall.

Molecule	Tg IFNy HTS
CN1C(=O)c2cc(NC(=O)c3cccc(F)c3)ccc2OC[C@H]2O[C@H](CC(=O)NCC3CCCCC3)CC[C@H]21	-28&-53
CS(=O)(=O)N1CC(=O)N2[C@@H](CO)[C@H](c3ccc(C#Cc4ccc(F)cc4)cc3)[C@@H]2C1	-19
Cn1c(CN2CCOCC2)nnc1SCC(=O)Nc1nnc(-c2ccccc2)s1	125
Cc1ccc(NC(=O)c2ccc3nnc4ncn(C5CCCC5)c4c3c2)cn1	-8
Cc1nc(N2CCCC2)sc1C(=O)NCCS(=O)(=O)c1ccc(F)cc1	1
CCNC(=O)c1nc(Nc2ccc(CC)cc2)c2ccccc2n1	-49
CNC(=O)[C@H]1C[C@@H]2CCN(Cc3cnn(C)c3)C[C@@H]2O1	-3
CCNC(=O)N1CCC(NC(=O)C2(c3cccs3)CC2(C)C)CC1 (stereo not drawn)	4
Cc1ccc(Cl)cc1N1CCN(CC(=O)Nc2cnccn2)CC1	2
COc1ccc(S(=O)(=O)Nc2ccc3c(c2)C(=O)N([C@@H](C)CO)C[C@@H](C)[C@@H](CN(C)C(=O)Nc2c(C)noc2C)OCCCC[C@@H](C)O3)cc1	-4
CC(Oc1ccccc1/C=C/c1ccccc1)C(N)=O (stereo not drawn)	24
OC(c1ccccc1)C1CCN(CCc2ccccc2)CC1 (stereo not drawn)	18

A different layout for part of the listing above.
> Cc1nc(N2CCCC2)sc1C(=O)NCCS(=O)(=O)c1ccc(F)cc1
  Tg IFNy HTS = 1
> CCNC(=O)c1nc(Nc2ccc(CC)cc2)c2ccccc2n1
  Tg IFNy HTS = -49
> CNC(=O)[C@H]1C[C@@H]2CCN(Cc3cnn(C)c3)C[C@@H]2O1
  Tg IFNy HTS = -3

Additional results.
Molecule	Tg IFNy HTS
Cc1ccc(-c2nc(CCNC(=O)C(=O)Nc3ccccc3Cl)cs2)cc1	27
COc1c(-c2ccc3cc(NS(C)(=O)=O)ccc3c2)cc(-n2ccc(=O)[nH]c2=O)cc1C(C)(C)C	-29
CC(C)c1cc(C2CCN(C(=O)c3ncc(F)cc3F)CC2)[nH]n1	-47
Cc1ccc(CN2CCOC3(CCCN(C(=O)C(C)C)C3)C2)o1 (stereo not drawn)	-24
CC(C)(C)c1ccc(/C=C/C(=O)Nc2ccc3c(c2)OCCO3)cc1	-73*
Cc1nc(CCNC(=O)[C@H]2CCCN2S(=O)(=O)c2ccc(CC(C)C)cc2)cs1	-50
N#Cc1ccc(C(=O)N2CCC3C2CCC(=O)N3c2cccnc2)cc1 (stereo not drawn)	-20
CCOC(=O)c1cc2c(nc1N)CC(C)(CC)OC2 (stereo not drawn)	73
COCCN1CC2CN(c3ncc(F)cn3)CCC2(c2ccccc2)C1 (stereo not drawn)	7
COc1ccc(-c2nn(-c3ccccc3)cc2CN(C)Cc2cnc3ccccn23)c(F)c1	-35
CCOC(=O)c1coc(N2C[C@H]3C[C@H](O)[C@H](O)C[C@H]3C2)n1	5
O=C(O)c1cc(-c2cccnc2)nc2ccccc12	167
COCC#Cc1ccc([C@@H]2[C@H](CO)N3CCCCN(Cc4cccnc4)C[C@@H]23)cc1	12
COc1ccc2c3c([nH]c2c1)[C@@H](CO)N(S(C)(=O)=O)CC31CN(CC2CCOCC2)C1	22
COC(=O)CSc1n[nH]c(-c2cccnc2)n1	5
CCc1ccccc1NC(=O)Cn1ncc2c(N(CC)CC)ncnc21	-34
COc1cc(C(=O)N2CCc3c([nH]c4ccccc34)C2c2ccccc2)cc(OC)c1OC (stereo not drawn)	177
COCC1CN(C(=O)N2CCCC2)Cc2cnn(C)c21 (stereo not drawn)	4
c1csc(-c2ccn3cnnc3n2)c1	2
CCc1ccc(S(=O)(=O)N2CCC3(CC2)CC(Nc2cccc(OC)c2)CO3)cc1 (stereo not drawn)	-1
CCCCCCOc1nsnc1C1=CCCN(C)C1	-75*
COc1ccc(NC(=O)c2ccc(-c3ccc(-c4noc(C)n4)cc3C)cc2)cc1N1CCN(C)CC1	-72*!
COc1ccc(CN(C)C(=O)c2ccccc2C2CCNC2)c2cccnc12 (stereo not drawn)	-1
Cn1c(C(=O)NCc2cccnc2)cc2cc(S(=O)(=O)N3CCCCC3)ccc21	20
Cc1ccc(F)cc1-n1c(Cc2c(C)n[nH]c2C)n[nH]c1=O	2
Cc1cc(C)c2nc(C)cc(C(=O)N3CCC4(CC3)CN(C)CCN4C)c2c1	-9
Cc1cc(F)ccc1NC(=O)c1c(O)c2cccnc2n(-c2cccc(F)c2)c1=O	-91*
Clc1ccc(CSc2n[nH]c(-c3ccccn3)n2)cc1	-62
CCc1nccn1C(C)C(=O)N1CCC2(CC1)NC(=O)N(Cc1ccccc1)C2=O (stereo not drawn)	2
COc1ccc(CN2CCCn3c(nc(CN4CCCC4)cc3=O)C2)cc1	-6
C=CC[C@@H]1CC=C[C@@H](C)N1C(=O)COc1ccc(F)cc1	10
Cc1nc(OCC(=O)Nc2cccc(C(F)(F)F)c2)c2ccccc2n1	-16
COc1ccc2[nH]c3c(c2c1)CN(C(=O)CC(C)n1nc(C)c(Cl)c1C)CC3 (stereo not drawn)	50
CN(C)C(=O)C[C@H]1C=C[C@@H](NC(=O)c2ccc(F)cc2)[C@H](CO)O1	3
CC(C)C(=O)c1cn(-c2nc(CNc3cccnc3)c3ccccn23)cn1	91
CN(C)C(=O)c1cc2cccnc2n(Cc2ccc(F)cc2)c1=O	24

A draw from above in order of SMILES length, low to high:
Molecule	Tg IFNy HTS
C=CC[C@@H]1CC=C[C@@H](C)N1C(=O)COc1ccc(F)cc1	10
CC(C)C(=O)c1cn(-c2nc(CNc3cccnc3)c3ccccn23)cn1	91
CN(C)C(=O)C[C@H]1C=C[C@@H](NC(=O)c2ccc(F)cc2)[C@H](CO)O1	3

Continued:
Molecule	Tg IFNy HTS
CC(Cn1ccc2ccccc21)NCC(=O)Nc1cnccn1 (stereo not drawn)	21
CN(C)S(=O)(=O)Oc1ccc(C#N)cc1	28
CO[C@@H]1CN(C)C(=O)c2cc(NC(=O)c3cccc(F)c3)ccc2OC[C@@H](C)N(C)C[C@@H]1C	-75*
CN(C)CCN1CCC2(CCCN(C(=O)C3CCOC3)C2)C1=O (stereo not drawn)	-47
O=C(NC1CCCCC1)N1CC2(C1)[C@H](c1ccccc1)[C@H](CO)N2S(=O)(=O)Cc1ccccc1	-17
COCCC(=O)N1C[C@H](OCc2ccccn2)[C@@H]2COC[C@@H]21	-65
Cc1ccc(NC(=O)N2CCN(Cc3nc(-c4ccccc4C)oc3C)CC2)cc1Cl	3
COCC(=O)N1CC(=O)N2[C@H](C1)[C@@H](c1ccc(C#CC3CC3)cc1)[C@@H]2CO	26
CC1Cc2ccccc2N1C(=O)CN1C(=O)COc2ccc(C(=O)c3cccs3)cc21 (stereo not drawn)	-43
Cc1nn(C)c(Cl)c1-c1c(-c2ccccc2)ncn1CCc1cnc[nH]1	-30
O=C(CSc1nc(-c2ccc(Cl)cc2)[nH]c(=O)n1)Nc1cccc(Cl)c1	41
CC(NC(=O)c1cccc2ccnn12)c1ccccc1-n1cccn1 (stereo not drawn)	78

The results go on:
SMILES | Tg IFNy HTS
Cc1cc(NC(=O)CC2CCCC2)n(-c2ncnc3c2cnn3-c2cccc(Cl)c2)n1 | -11
Cc1cncc(C(=O)N2CC[C@@H](OCC3CC3)[C@@H]2Cc2ccccc2)c1 | 1
COc1cccc(CNc2nc3nc4c(c(=O)n3[nH]2)CCC4)c1 | -39
CCCc1nc(C)cc(N2CC(c3cccnc3)C2)n1 | 41
CC(C)n1c(C2CCCN(C(=O)c3ccc4c(c3)ncn4C)C2)nc2ccccc21 (stereo not drawn) | 7
Cc1ccc(NC(=O)Nc2ccc3c(c2)C(=O)N(C)[C@@H]2CC[C@@H](CC(=O)NCC(F)(F)F)O[C@H]2CO3)cc1 | 12
COc1ccc(NC(=O)CN2CCC3(CC2)N=C(c2ccc(F)cc2)C(=O)N3)cc1 | 25
N[C@@H]1CCCN(c2c(/C=C3\SC(=O)NC3=O)cccc2-c2ccccc2)C1 | -17
COCCN1CCCC(O)(CN(C)Cc2cccc(O)c2)C1=O (stereo not drawn) | -55
CNC(=O)C[C@@H]1CO[C@@H]2CN(C(=O)N3CCCC3)C[C@@H]12 | 22
Cc1nn(CC(=O)NCCCN2CCCC2)c(=O)c2nc(-c3ccccc3)sc12 | 30
Cc1noc(C)c1S(=O)(=O)Nc1ccc2c(c1)C(=O)N([C@H](C)CO)C[C@H](C)[C@H](CN(C)C(=O)NC1CCCCC1)O2 | -37
CCN1c2ccc(C)cc2C(=O)NC12CCN(C(=O)c1ccccc1Cl)CC2 | 33
c1ccc(-n2cc(CN3CCN(c4ncnc5ccccc45)CC3)cn2)cc1 | -53
Cc1ccc2c(n1)N(C)CCN(C(=O)c1ccc[nH]1)C2 | 4
C=CCN1C(=O)COC2(CCN(Cc3cnn(C)c3)CC2)C1C (stereo not drawn) | -78*
COc1ccccc1OCC(=O)N1CCOCC1c1csc(C)n1 (stereo not drawn) | -18
Cc1cccc(CNC(=O)CN2C(=O)CCc3cc(Br)ccc32)c1 | 30
C[C@H](CO)N1C[C@H](C)[C@H](CN(C)Cc2ccc3c(c2)OCO3)Oc2c(NC(=O)c3ccncc3)cccc2C1=O | -36
C[C@H]1CN([C@@H](C)CO)C(=O)CCCn2cc(nn2)CO[C@@H]1CN(C)S(=O)(=O)c1ccc(-n2cccn2)cc1 | -31
O=S(=O)(Cc1ccc(F)cc1)Cc1noc(-c2ccc(F)cc2Cl)n1 | -57
Cc1ccc(C(C)NC(=O)Cn2ncc3c(N4CCC(C)CC4)ncnc32)cc1 (stereo not drawn) | -42
CNS(=O)(=O)c1ccc(F)c(C(=O)NCc2cc(N(C)C)nc(-c3cccnc3)n2)c1 | -13
Cc1ccc(NC(=O)CC(=O)N2CCN3CCCC3C2)c(C)c1 (stereo not drawn) | 1
C=CCNC(=O)c1ccc(-c2cnc3ccccc3c2)o1 | -82*
Cc1cccn2cc(C(=O)NCCN=C3NS(=O)(=O)c4ccccc43)nc12 | 3
CN(CCc1ccccn1)C(=O)C1CNC1 | -36
O=C(Cn1ncc2c(N3CCN(c4ccccc4)CC3)ncnc21)Nc1cc(F)ccc1F | 47
Cc1ccccc1C(=O)N1C[C@@H]2CCN(CCN3CCCC3)C[C@H]2C1 | -27
COc1cccc2cc(C(=O)Nc3ccc4c(c3)OCC(=O)N4)c(C)nc12 | 16
CCOC(=O)c1ccc(NC(=O)Nc2ccc(-c3nc(-c4ccc(C)cc4C)co3)cc2)cc1 | -2
COc1ccc(-c2cnc(NC(=O)c3cnn(-c4ccc(F)cc4)c3)n2C)cc1 | -11
Cc1cccc(-c2ccc(C3[C@@H]4CN(Cc5cccc(F)c5)C[C@H]3N4)cc2)c1 (stereo partly drawn) | -62&-31
Cc1nn(CCC(=O)NCC2(O)CCCNCC2)c(C)c1C (stereo not drawn) | 19
COc1ccc(CCC(=O)N2CCC3(CC2)Nc2ccc(Cl)cc2-n2cccc23)cc1 | -97*
O=C(NCCc1csc(-c2ccccc2)n1)[C@H]1CCCN1C(=O)Cc1ccc(Cl)cc1 | 24
O=S(=O)(c1ccccc1)N1CCCC(c2nnc(-c3cccs3)o2)C1 (stereo not drawn) | 25
CCc1nnc(NC(=O)CSc2nc3ccccc3c(=O)n2CCCOC)s1 | -65
CCC(C)N(Cc1cccc(Cl)c1)C(=O)c1ccc(C)c(N2CCNC2=O)c1 (stereo not drawn) | -1
COc1ccc(-c2ccccc2OC(C)C(N)=O)c2ccc(C)nc12 (stereo not drawn) | 8

Rewritten with each value named: part of the list above.
CNS(=O)(=O)c1ccc(F)c(C(=O)NCc2cc(N(C)C)nc(-c3cccnc3)n2)c1
  Tg IFNy HTS: -13
Cc1ccc(NC(=O)CC(=O)N2CCN3CCCC3C2)c(C)c1 (stereo not drawn)
  Tg IFNy HTS: 1
C=CCNC(=O)c1ccc(-c2cnc3ccccc3c2)o1
  Tg IFNy HTS: -82*

Next records.
SMILES | Tg IFNy HTS
CCS(=O)(=O)N1[C@H](CO)[C@H](c2ccc(C#Cc3ccccc3F)cc2)[C@@H]1C#N | 16
COc1ccc(C(=O)N2C[C@H]3CC=CC[C@H]3C2)c(O)c1 | -8
O=c1ccc2cc(S(=O)(=O)N3CCC4(CC3)OCCO4)ccc2[nH]1 | 41
C(=C\c1ccc(C2[C@@H]3CN(Cc4nccs4)C[C@H]2N3)cc1)/c1ccccc1 (stereo partly drawn) | -37&-38
CCCN(CCC)CCNC(=O)C1=C(C)C(=O)OC12CCN(S(=O)(=O)CC)CC2 | 23
O=C(/C=C/c1c(C(=O)O)[nH]c2cc(Cl)cc(Cl)c12)Nc1ccccc1 | -51
Cc1cccc(S(=O)(=O)N2CCCC3(CCCN3S(C)(=O)=O)C2)c1 (stereo not drawn) | -3
Cn1cncc1[C@@H]1C[C@H](NC(=O)c2ccccc2)C[C@H](C2CCCCC2)O1 | -13
C/C=C/c1ccc([C@H]2[C@@H](CO)N(C(=O)C3CCC3)C23CN(C(=O)NC(C)C)C3)cc1 | -45
CC(NC(=O)C1CCN(c2ncnc3ccccc23)CC1)c1nc2ccccc2s1 (stereo not drawn) | -50
CS(=O)(=O)N1CC(=O)N2[C@H](C1)[C@H](c1ccc(Br)cc1)[C@@H]2CO | 4
COc1ccc(-c2nc(Cn3nnc(C(=O)Nc4ccc(Br)c(C)c4)c3C)c(C)o2)c(OC)c1 | -3
Cc1ccoc1C(=O)N1CCCc2c(c(=O)n(C)n2C)C1 | -1
O=C(c1ccccc1)N1CCC(N2CC[C@@H](c3ccc(F)cc3)[C@H](O)C2)CC1 | -7
